TRPV1 PAM – human TRPV1 potentiation | Q8NER1 | TRPV1-expressing cells, Fluo-8 calcium influx, capsaicin EC20 potentiation; host cell line not named in the record; control for the full effect not named in the record | potentiation, % at 8.33 µM | actives 0.02% (n = 320,000) | AID 540277; active means potentiation above 80%; inconclusive means 30% to 80%; inactive means below 30%; note: 0% is about no effect
Target sequence (Q8NER1 whole entry, looked up): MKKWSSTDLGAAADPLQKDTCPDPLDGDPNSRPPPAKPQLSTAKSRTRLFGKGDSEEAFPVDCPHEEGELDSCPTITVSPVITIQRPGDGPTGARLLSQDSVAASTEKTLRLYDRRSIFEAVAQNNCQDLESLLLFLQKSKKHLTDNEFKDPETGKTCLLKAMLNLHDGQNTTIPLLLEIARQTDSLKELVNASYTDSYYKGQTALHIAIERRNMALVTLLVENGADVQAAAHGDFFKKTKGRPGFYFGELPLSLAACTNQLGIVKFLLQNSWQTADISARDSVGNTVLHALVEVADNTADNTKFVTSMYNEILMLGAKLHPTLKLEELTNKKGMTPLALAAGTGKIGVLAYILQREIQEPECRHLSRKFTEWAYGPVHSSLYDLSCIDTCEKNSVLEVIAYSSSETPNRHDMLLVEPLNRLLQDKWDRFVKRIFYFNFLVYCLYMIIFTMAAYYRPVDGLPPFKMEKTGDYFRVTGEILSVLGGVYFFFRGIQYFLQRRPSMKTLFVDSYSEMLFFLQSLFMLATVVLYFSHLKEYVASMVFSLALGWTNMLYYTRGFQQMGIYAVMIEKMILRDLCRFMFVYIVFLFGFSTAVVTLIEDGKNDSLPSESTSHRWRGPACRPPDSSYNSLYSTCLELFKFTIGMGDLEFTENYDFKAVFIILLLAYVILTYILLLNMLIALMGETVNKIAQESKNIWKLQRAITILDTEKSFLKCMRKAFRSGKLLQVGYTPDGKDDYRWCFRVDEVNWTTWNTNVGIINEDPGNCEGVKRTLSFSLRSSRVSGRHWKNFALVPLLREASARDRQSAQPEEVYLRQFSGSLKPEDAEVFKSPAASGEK
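TRPV1-expressing cells were cultured overnight at 35.5C and loaded with Fluo-8 calcium dye for 40 to 90 min at room temperature. After a 10 s baseline, compound was added and calcium influx was read kinetically for 3 min (ex 480/em 520 nm).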
D2 PAM – potentiates the human D2 dopamine receptor allosterically. P14416. DiscoveRx D2 beta-arrestin cells, luminescence, 90 min; 100% = 57 uM dopamine signal. potentiation, % (no concentration beside the values). actives 0.23% (n = 360,000). AID 624464; active = potentiation of 50% or more; inconclusive = 30% to 50%; inactive = 30% or less;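 note: compound concentration not given in the record; tested on top of an EC20 dose of dopamine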
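PathHunter beta-arrestin assay in DiscoveRx D2 cells. Compounds were added with an EC20 of dopamine (50 nM final) for 90 min at 37 deg C. Luminescence was read 1 h after detection reagent, with 57 uM dopamine as the EC100 control.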
ClpP mod – qHTS Assay for Activators of ClpP | ATP-dependent Clp protease proteolytic subunit (Bacillus subtilis (strain 168)), P80244 | purified B. subtilis ClpP, FRET peptide cleavage, 20 min | Potency, µM (series often up to 57.5 µM), for the others: top-dose activity change, negative = active | actives 1.9% (n = 340,000) | AID 651965, 2013; active = well fitted falling curve with a large enough effect; inconclusive = small, poorly fitted or top-dose-only effect; inactive = no such curve, though single readings can be large or run the other way; note: potency is the fitted concentration of half-maximal effect; the source files actives as falling curves though it sought activators and does not explain the sign; nearly all actives have a fitted effect of over 65% in size; many hits overshoot -100%
Target sequence (P80244 whole entry, looked up): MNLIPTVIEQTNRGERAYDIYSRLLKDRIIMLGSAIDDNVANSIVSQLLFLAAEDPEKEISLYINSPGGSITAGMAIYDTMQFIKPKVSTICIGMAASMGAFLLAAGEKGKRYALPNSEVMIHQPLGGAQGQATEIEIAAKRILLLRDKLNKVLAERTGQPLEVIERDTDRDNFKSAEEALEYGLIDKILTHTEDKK
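ClpP 10 microg/mL final, pH 8 Tris/KCl buffer with BSA, glycerol, Tween-20; compound pinned in; FRET-FV substrate; RT 20 min; Ex320/Em430; ΔFRET vs ADEP 5.8 microM, DMSO, no enzyme.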
gsp ag – gsp mutant agonism. gsp mutant cells, cAMP HTRF, 30 min; control for the full effect not named in the record. Potency, µM (highest dose often 76.9 µM), for the others: at the top dose activation (cAMP increase), most hits filed as activators. actives 0.13% (n = 340,000). AID 624287; active = well fitted activation curve with a large enough effect; inconclusive = small, poorly fitted or top-dose-only effect, or another doubt; inactive = no such curve, though single readings can be large or run the other way; cell line not stated here;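 note: phosphodiesterase inhibitor Ro 20-1724 added with compounds to block cAMP breakdown; potency is the fitted concentration of half-maximal effect; nearly all actives have a fitted effect of over 60% in size; about a fifth of the inactives were tested at one dose only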
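Cells in DMEM/10% FBS with G418 were pretreated with compounds in DMSO plus […] (300 uM stock) for 30 min at 37C. cAMP was measured by HTRF (cAMP-d2 plus anti-cAMP antibody-K) after 30 min at room temperature.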
Sfp PPTase inh – Sfp phosphopantetheinyl transferase inhibition | Potency, µM, for the others: max response, negative = inhibition, actives largely listed as inhibitors | Q9F4F7 | Biochemical Sfp PPTase activity, qHTS | actives 3.5% (n = 310,000) | AID 1490; active = well fitted inhibition curve with a large enough effect; inconclusive = small, poorly fitted or top-dose-only effect, or another doubt; inactive = no such curve, though single readings can be large or run the other way;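 note: the enzyme is Sfp with the accession as filed and its product quenches rhodamine fluorescence; potency is the fitted concentration of half-maximal effect; 0% = enzyme reaction without inhibitor and -100% = no enzyme wells; top concentration of the series not given in the record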
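Compounds were incubated with enzyme (final 15 nM) for 15 min at room temperature before substrate addition started the reaction. Fluorescence at 525 nm excitation, 598 nm emission was recorded immediately and after 30 minutes.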
Menin MLL FP FL – inhibitors of human menin-MLL interaction, wild-type MLL peptide. Fluorescence polarization, fluorescein-MLL peptide displacement from menin. FP activity change, % at 61.4 µM. 290,000 tested, under 10 active. AID 1766; inconclusive = falling polarisation curve, or a change in total fluorescence; inactive = total fluorescence flat and polarisation flat or rising; no compound was filed as active; the % refers to the polarisation; negative = inhibition;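 note: % of control where 0% means no effect; inhibitors lower the polarisation; unlabelled MLL peptide was the positive control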
gsp antagonist – gsp mutant antagonism; gsp-mutant cells, cAMP HTRF, 30 min; control for the full effect not named in the record; Potency, µM (series often up to 76.9 µM), without a hit: at the highest dose activity change, negative = inhibition, actives largely listed as inhibitors; actives 0.4% (n = 340,000); AID 624288; active = falling curve of any shape with a large fitted effect; inconclusive = falling curve, mostly with a smaller effect; inactive = flat or rising curve; cell line not stated here;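 note: intracellular cAMP measured with PDE inhibitor Ro 20-1724 present during compound exposure; potency is the fitted concentration of half-maximal effect; % is set by controls: 0 for no effect and ±100 for the full control effect; nearly all actives have a fitted effect of over 65% in size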
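HTRF cAMP measurement after 30 min RT detection following 30 min, 37C compound treatment alongside […] (added as 300 uM solution) in G418-selected cells seeded at 2000/well and grown 16–24 h.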
Numbers without * were called inactive; u = inconclusive; x = no result given; & = joins results of further samples; [ ] = dose if it differs, or a comment.

SMILES,TRPV1 PAM,D2 PAM,ClpP mod,gsp ag,Sfp PPTase inh,Menin MLL FP FL,gsp antagonist
COc1cc(C(=O)NC2CCN(C)CC2)ccc1Nc1ncc2c(n1)N(C1CCCC1)CCC(=O)N2C(C)C,x,-16,-20%,x,x,x,3%
CCCn1c(NCc2cccs2)nc2ccccc21,11,-6,-0.4%,-54%,3%,2.8,-17%
COc1cc([N+](=O)[O-])cc(/C=C2/SC(=S)N(Cc3ccccc3)C2=O)c1O,22,-31,-1.5%,6%,40µM*,u,u
Cc1ccc(C)c(NC(=O)CN(C)C(=O)c2oc3c(Cl)cccc3c2C)c1,-11,-5,x,-6%[15.4 µM],x,x,u
O=C(CN(C(=O)c1nsc(Cl)c1Cl)c1ccc(F)cc1)NC1CCCC1,-21,-9,x,-5%[15.4 µM],3%,0.5,-5%
CCN(CC)C(=O)c1n[nH]c(=O)c2ccccc12,3,8,-1.4%,-23%,6%,4.5,1%
Cc1ccc(C(=O)N2CCNC(=O)C2CC(=O)Nc2ccccc2)cc1 (stereo not given),1,-4,-0.3%,u,4%,-1.6,0%
COc1ccc(S(=O)(=O)N2CCOCC2)cc1NC(=O)c1sccc1C,-6,-8,1.1%,15%,x,x,u
CC(C)(C)C(=O)Nc1cc2nn(-c3ccccc3)nc2cc1Cl,-11,-14,28µM*,7%,2%,0.5,12%
Cc1cc(-c2nsc(=O)o2)c(S(C)(=O)=O)s1,-1,-9,-1.5%,7%,-84%,-0.5,2%
Cc1cc(C(=O)COC(=O)CC2Sc3ccccc3NC2=O)c(C)n1-c1cccc(C(F)(F)F)c1 (stereo not given),-12,-9,-3.6%,-5%,27%,12,-13%
Cc1ccc2cc3cc(C(=O)NC4CC4)oc3nc2c1,-4,-9,4.1%,2%,6%,-1.4,-2%
Nc1c(-c2ccccc2)cnc2cc(-c3ccccc3)nn12,-5,-8,11%,-25%,15%,-0.4,-7%
CC1=Nc2ccccc2N=C(NC(=O)c2ccccc2)C1c1ccccc1 (stereo not given),-8,-10,x,-33%[15.4 µM],21%,0.2,u
CC1(C)Cc2c(ccc3ccccc23)C(=O)N1,-1,2,u,0%,7%,-2.5,-30%
C=CCn1cccc(C(=O)Nc2cc(OC)cc(OC)c2)c1=O,9,-7,x,-21%,6%,-1.4,-10%
CCOC(=O)C1CCCN(S(=O)(=O)c2c(C(=O)N3CCCCC3)c(C)n(C)c2C)C1 (stereo not given),9,3,0.1%,15%,7%,-0.6,7%
COC(=O)[C@]1(C)N[C@H](CN(C)S(=O)(=O)c2ccc(C)cc2)[C@@H]2C(=O)N(C)C(=O)[C@@H]21,x,3,1.7%,x,x,x,1%
CC(C)(C)NC(=S)NNC(=O)c1ccc2ncccc2c1,-32,-15,0.0%,u,2%,-0.2,-4%
CC(=O)c1ccccc1OCCOCCOCCOc1ccccc1C(C)=O,2,-19,0.89µM*,8%[15.4 µM],30%,1.3,-7%
COc1cccc(CNC(=O)Cn2cc3c(n2)CCCC3)c1,-12,-3,0.2%,-22%,20%,1.4,2%
CC(Sc1nc(-c2ccccc2)cc(C(F)(F)F)n1)C(=O)O (stereo not given),3,-5,x,0%[15.4 µM],18%,-2.2,-15%
CCOc1ccc(N2CCCCn3c2nc2c3c(=O)[nH]c(=O)n2C)cc1,0,x,x,x,10%,0.5,x
CC(=O)NC(CC(=O)N(Cc1ccccc1)c1cccc(C)c1)c1ccccc1 (stereo not given),-17,5,-1.0%,-36%[inhibitor],16%,x,-1%
C/C(=N\NC(=O)CN1CCN(S(=O)(=O)c2ccc(C)cc2)CC1)c1ccc(O)cc1,-2,-11,0.6%,-10%,9%,1.0,-4%
COc1ccc(-c2cc(=O)c3c(OC)c(OC)c(OC)c(OC)c3o2)cc1,x,-17,-2.7%,x,-6%,-2.5,-12%
CCc1nnc(NC(=O)c2ccc(COc3ccccc3)o2)s1,5,-3,-2.1%,u,12%,3.1,5%
COc1cc(-n2c(-c3ccccc3)n[nH]c2=S)c(OC)cc1Cl,u,-1,-0.1%,11%,u,-4.3,-12%
O=C(CSCc1ccccc1)Nc1ccc(F)cc1F,-4,-6,-1.3%,-14%,11%,5.1,10%
Cc1ccc(C(=O)CN(C(=O)c2ccc(Cl)c(Cl)c2)N2C(=O)C3CCCCC3C2=O)cc1 (stereo not given),1,-7,1.8%,-52%[inhibitor],0%,-0.3,-10%
Nc1nonc1-n1nnc(C(=O)N/N=C/c2ccc(OCc3ccccc3)cc2)c1COc1ccc(F)cc1,1,-3,3.2%,-35%[inhibitor],15%,2.4,-11%
COC(=O)c1sccc1NC(=O)c1csc2c1CCCC2,11,-12,-23%,u,-15%,2.3,u
O=C(Nc1ccc(-c2nnc(-c3ccccc3)o2)cc1)c1ccc(Br)o1,x,-3,-6.6%,-16%,x,x,-10%
CC(=O)Nc1ccc2nc3c(=O)n(C)c(=O)n(C)c3nc2c1,0,-3,1.6%,5%[15.4 µM],u,u,0%
Cc1ccccc1CC1(CO)CCCN(C(=O)CCC(F)(F)F)C1 (stereo not given),-14,-28,-2.2%,-1%[15.4 µM],16%,-0.3,1%
CC(=O)c1sc(NC(=O)C2CCN(C(=O)c3ccc(F)cc3)CC2)nc1-c1ccccc1,6,0,-5.6%,u,x,x,-8%
COc1cccc(/C=N/NC(=S)NC2CC3CCC2C3)c1OC (stereo not given),6,-29,-24%,0%,15%,0.5,-4%
COc1ccc(N(CC(=O)NC(C)(C)C)S(=O)(=O)c2ccccc2)cc1OC,10,-6,-0.1%,-14%,-2%,2.9,5%
COCCN1CCn2c(nc3cc(NC(=O)c4cccs4)ccc32)C1,-2,5,-6.0%,-3%,-9%,9.0,-3%
O=C(NC1CC1)c1ccc(CSCc2cccc(F)c2)o1,x,-8,1.9%,-9%,-13%,1.1,-2%
CCC(CC)C(=O)Nc1cccc(/C(C)=N\NC(=O)c2ccc(C)s2)c1,7,-6,-3.1%,0%,19%,0.2,-7%
Nc1c(OS(=O)(=O)c2ccccc2)cccc1OS(=O)(=O)c1ccccc1,x,-9,-2.8%,25%,x,x,x
CCOc1ccccc1Oc1cn[nH]c1-c1ccc(O)cc1O,15,-1,x,-36%[inhibitor],5%,-0.3,-8%
Cc1ccc(-n2ccnc2SCC(=O)c2c(N)n(C3CC3)c(=O)[nH]c2=O)cc1C,-8,8,2.2%,-13%,x,x,1%
N#CC1(NC(=O)COC(=O)c2ccc(Cl)nc2)CCCCC1,-5,-20,1.2%,-12%,x,x,-20%
O=[N+]([O-])c1cccc(-c2noc(-c3ccco3)n2)c1,2,-17,1.1%,19%,-2%,-0.7,6%
CCCc1cc(=O)oc2cc(C)cc(OCC(=O)NCc3cccnc3)c12,2,6,3.8%,2%,15%,-9.2,0%
COc1ccccc1C(=O)CN1C(=O)NC2(CCCCCC2)C1=O,x,-25,1.4%,-2%[15.4 µM],x,x,-19%
Cc1cc(C(=O)COC(=O)Cc2n[nH]c(=O)c3ccccc23)c(C)n1-c1cccc(C(F)(F)F)c1,7,-36,-0.9%,-26%,-1%,4.7,-15%
NC[C@@]12CCCC1C1CCC2C1 (stereo not given in full),4,x,x,x,-3%,2.2,x

Later entries
SMILES,TRPV1 PAM,D2 PAM,ClpP mod,gsp ag,Sfp PPTase inh,Menin MLL FP FL,gsp antagonist
COc1ccc(CNCC(O)COCc2cccs2)cc1 (stereo not given),-6,-5,-0.3%,12%,-11%,-6.2,10%
C=CCn1c(N)c(C(=O)NCc2ccco2)sc1=S,1,-8,0.8%,-44%[inhibitor],-14%,-0.2,9%
Cc1nn(Cc2c(Cl)cccc2Cl)c(C)c1NC(=O)Cn1nc([N+](=O)[O-])c(Cl)c1C,0,-8,1.0%,0%,0%,x,7%
Cc1ccc2c(c1)C1(C(=O)N2C)N2CC3(C)CN1CC(C)(C2)C3=O (stereo not given),-17,-2,0.6%,-9%,1%,1.1,9%
CCOC(=O)c1c(NC(=O)c2cc3n(n2)C(C(F)(F)F)CC(c2ccccc2)N3)sc(C)c1C (stereo not given),-3,-8,-16%,u,5%,13,1%
CC(C)Oc1ccc(S(=O)(=O)N2CCOCC2)cc1NC(=O)C1=NN(c2ccccc2)C(=O)CC1,-6,-21,1.8%,25%,x,x,u
O=C(c1ccccc1)c1ccc(Cn2cc(-c3ccccc3)nn2)cc1,u,1,1.2%&4.2%,x,-9%,1.4,u
O=C1Nc2ccccc2Nc2ccccc21,22,-7,1.2%,-4%[15.4 µM],-20%,4.4,-2%
C/C(=N\Nc1nc2ccccc2[nH]1)c1ccc(N2CCOCC2)cc1,3,-6,x,-17%[15.4 µM],-23%,-2.3,-36%
CS(=O)(=O)c1ccc([C@@H](O)[C@@H](CO)NC(=O)C(Cl)Cl)cc1,2,-10,-1.1%,x,x,x,0%
CCOc1cc(/C=N/NC(=O)C(=O)NCCCOC(C)C)cc(Br)c1O,10,-2,-3.4%,u,-1%,7.4,-10%
Cc1ccsc1C(=O)NCCC(c1ccccc1)c1ccccc1,-6,-10,x,19%,10%,4.8,-28%
O=C(O)/C=C/C(=O)Nc1ccc(O)cc1,-4,8,-2.8%,-15%,-23%,-1.9,2%
COc1ccccc1CN1CCN(S(=O)(=O)c2ccc(C)cc2)CC1,x,-11,-2.9%,24%[15.4 µM],x,x,1%

Compound activity (PubChem)
